TRPML1 agonist: agonists of human TRPML1 channel. activation, % (no concentration beside the values). TRPML1-expressing cells, Ca2+ dye fluorescence, FDSS; host cell line not named in the record; reference of the full effect not given here. Q9GZU1. 0.12% of 410,000 active; in the data active = activation above about 50%; inconclusive = about 30% to 50%; inactive = below about 30%; also: 0% is about no effect; the text of the record puts the active cut at 80%
Target sequence (Q9GZU1 whole entry, looked up): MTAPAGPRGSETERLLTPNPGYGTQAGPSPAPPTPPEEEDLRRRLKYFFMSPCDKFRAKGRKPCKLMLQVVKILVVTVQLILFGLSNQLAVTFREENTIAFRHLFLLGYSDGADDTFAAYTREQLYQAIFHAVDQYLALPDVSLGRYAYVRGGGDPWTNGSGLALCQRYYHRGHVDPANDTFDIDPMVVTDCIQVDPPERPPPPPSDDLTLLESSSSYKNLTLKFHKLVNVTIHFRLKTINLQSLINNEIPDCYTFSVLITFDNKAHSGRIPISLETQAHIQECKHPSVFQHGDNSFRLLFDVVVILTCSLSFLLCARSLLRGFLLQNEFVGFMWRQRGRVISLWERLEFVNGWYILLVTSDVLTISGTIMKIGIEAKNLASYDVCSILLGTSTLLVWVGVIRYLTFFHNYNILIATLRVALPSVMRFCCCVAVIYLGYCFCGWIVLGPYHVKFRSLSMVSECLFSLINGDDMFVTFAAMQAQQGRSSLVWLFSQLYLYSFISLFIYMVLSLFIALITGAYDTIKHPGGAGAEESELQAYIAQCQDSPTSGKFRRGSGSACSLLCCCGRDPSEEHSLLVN
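In this qHTS format, compounds were pin-transferred onto Ca8-dye-loaded TRPML1-DL cells induced with Tet overnight, and intracellular Ca2+ fluorescence was recorded kinetically for 110 s after a 10 s baseline. A subsequent 4uM final 54-4 (EC80) addition followed by a second 110 s read served as the antagonist phase.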
PINK1 modulator: modulators of PINK1 expression; PINK1 immunofluorescence, high-content cytometry, 24 h; 0.2% of 410,000 active; Potency, µM (doses to about 76.6 µM), inactives show at the top dose activation (PINK1 increase), hits mostly activators; AID 624263; active = well fitted activation curve with a large enough effect; inconclusive = small, poorly fitted or top-dose-only effect; inactive = flat fitted curve, though single readings scatter; cell line not stated here;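 also: potency is read from the fitted curve at half-maximal effect; % of control where 0% means no effect; nearly all actives have a fitted effect of over 65% in size; a mitochondrial uncoupler was the plate control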
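Compound titrations (5 concentrations, 24 h) on a stable cell line; DMSO and CCCP controls. Endpoint: fixed-cell PINK1 immunofluorescence with mitochondrial, cell and nuclear markers, scanned by microplate cytometer.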
An asterisk follows results filed as active; ? = inconclusive. These rows are one share of the data; the hit share may differ from the screen's.

SMILES | TRPML1 agonist | PINK1 modulator
COc1ccc(CNc2ccccc2C(=O)NCc2ccccc2)cc1COc1ccc(NC(C)=O)cc1 | -0.5 | 0.7%
CCc1ccc(NC(=O)Cn2c(=O)oc3cc(S(=O)(=O)NCc4ccccc4)ccc32)cc1 | 4.8 | 4.9%
CCOc1ccccc1C(=O)Nc1ccc(S(=O)(=O)N2CCCCC2c2cccnc2)cc1 (stereo not drawn) | 2.0 | 5.8%
CCn1cc(S(=O)(=O)c2ccc(C)cc2)c(=O)c2cc(F)c(N3CCCCCC3)cc21 | -1.2 | 0.6%
CC(C)Cn1c(=O)c2ccccc2n2c(CCC(=O)NC(C)c3ccccc3)nnc12 (stereo not drawn) | -0.7 | -0.9%
CCOc1ccc(N(CC)S(=O)(=O)N2CCCC(C(=O)Nc3ccc(C(C)=O)cc3)C2)cc1 (stereo not drawn) | 0.3 | -1.2%
Cn1nnc2c(NCc3ccco3)ncnc21 | 0.3 | -0.1%
CSc1nc(=O)[nH]c2nc[nH]c12 | 0.1 | 0.2%
COc1ccc(-c2[nH]c(-c3ccc(OC)c(OC)c3)nc2SCC(=O)Nc2ccccc2)cc1 | 2.0 | 6.3%
CCn1c(=O)c2cc(C(=O)N(C)c3cc(C)ccc3C)sc2c2ccccc21 | -1.4 | 0.8%

The list goes on, starting with the last 6 of the part before.
SMILES | TRPML1 agonist | PINK1 modulator
CC(C)Cn1c(=O)c2ccccc2n2c(CCC(=O)NC(C)c3ccccc3)nnc12 (stereo not drawn) | -0.7 | -0.9%
CCOc1ccc(N(CC)S(=O)(=O)N2CCCC(C(=O)Nc3ccc(C(C)=O)cc3)C2)cc1 (stereo not drawn) | 0.3 | -1.2%
Cn1nnc2c(NCc3ccco3)ncnc21 | 0.3 | -0.1%
CSc1nc(=O)[nH]c2nc[nH]c12 | 0.1 | 0.2%
COc1ccc(-c2[nH]c(-c3ccc(OC)c(OC)c3)nc2SCC(=O)Nc2ccccc2)cc1 | 2.0 | 6.3%
CCn1c(=O)c2cc(C(=O)N(C)c3cc(C)ccc3C)sc2c2ccccc21 | -1.4 | 0.8%
CCOC(=O)c1ccc(NC(=O)c2oc3c(c2C)-c2nn(Cc4ccccc4Cl)cc2CC3)cc1 | 1.8 | 0.2%
CCOc1ccccc1NC(=O)n1ncc2cc(Cl)ccc21 | -0.3 | 1.1%
COc1ccc(S(=O)(=O)c2cc3cc(C(C)(C)C)cc(O)c3oc2=O)cc1 | 0.2 | 5.1%
CC1CCN(c2nn3c(=O)c(C(=O)NC(C)C)cnc3s2)CC1 | -0.6 | 0.2%
COc1ccc(Nc2nc3c(S(=O)(=O)c4ccccc4)nnn3c3ccc(Cl)cc23)cc1OC | -0.4 | -0.3%
Cc1cc2c(cc1S(=O)(=O)CCC(=O)Nc1ccc(OC(F)(F)F)cc1)OCC(=O)N2 | 2.4 | -0.2%
O=C(CSc1cn(CC(=O)N2CCCCC2)c2ccccc12)NCc1ccccc1 | 3.3 | -0.6%
CCC(=O)N1c2ccc(S(=O)(=O)CCC(=O)Nc3ccc(Br)c(C)c3)cc2CC1C (stereo not drawn) | 0.4 | -0.2%
Cc1cc(NS(=O)(=O)c2ccc(NC(=O)c3ccccc3F)cc2)nc(C)n1 | -0.4 | 1.6%
Cc1c(Cl)cccc1-c1ccc(C(=O)Nc2ccc(F)cc2)o1 | 1.5 | ?
CCn1c(CNC(=O)c2ccc(OC)cc2)nnc1SCC(=O)Nc1cccc(C)c1C | -0.8 | 1.3%
COc1ccc(Nc2oc(-c3ccc(COc4cccc(C)c4)o3)nc2C#N)cc1 | 0.0 | 3.2%
CCOc1ccccc1NC(=O)Cn1nnc(C(=O)Nc2ccc(C)c(C)c2)c1N | 1.5 | 3.6%
CCCNC(=O)Nc1cc(C(=O)NCc2cccc(OCC)c2)ccc1N1CCCC1 | -0.2 | -0.8%
CCOc1ccccc1NC(=O)c1c(NCc2sccc2C)sc2c1CCC(C)C2 (stereo not drawn) | 0.4 | 3.5%
COc1cc2c(=O)n(Cc3ccccc3Cl)c(=O)n(CC(=O)Nc3ccc(C)c(C)c3)c2cc1OC | -0.1 | 2.9%
CCn1ccc2cc(S(=O)(=O)N3CCCN(C(=O)Nc4cccc(SC)c4)CC3)ccc21 | 2.3 | 0.4%
CCCCc1ccc(NC(=O)c2cc3c(=O)n4ccccc4nc3n2C)cc1 | -0.9 | 1.3%
CC(=O)c1cccc(NC(=O)c2nc3ccccc3nc2N2CCCCC2)c1 | 0.8 | 1.4%
COc1ccc(-c2nc(CNS(=O)(=O)c3ccc(C)cc3)cs2)cc1 | 2.6 | -0.3%

Exported with two lines to a compound: entries from further up.
Values run as follows: TRPML1 agonist	PINK1 modulator
- COc1cc2c(=O)n(Cc3ccccc3Cl)c(=O)n(CC(=O)Nc3ccc(C)c(C)c3)c2cc1OC
    -0.1	2.9%
- CCn1ccc2cc(S(=O)(=O)N3CCCN(C(=O)Nc4cccc(SC)c4)CC3)ccc21
    2.3	0.4%
- CCCCc1ccc(NC(=O)c2cc3c(=O)n4ccccc4nc3n2C)cc1
    -0.9	1.3%

The list continues:
SMILES | TRPML1 agonist | PINK1 modulator
CCOc1ccc(-c2csc3ncnc(Nc4cccc(O)c4)c23)cc1 | -1.0 | 2.1%
COc1ccc(CN2C(=O)c3oc4ccccc4c(=O)c3C2c2ccc(O)cc2)cc1 (stereo not drawn) | 0.4 | -0.9%
CCOc1ccc(NC(=O)CSc2nccn2C2CCCC2)cc1 | 2.6 | -1.1%
CCOC(=O)C1CCN(c2ncnc3c2nnn3C)CC1 | 1.2 | 0.4%
CN1C(=O)C2(SCC(=O)N2c2cccc(C(F)(F)F)c2)c2ccccc21 (stereo not drawn) | 5.1 | -0.9%
COc1ccc(OC)c(CNC(=O)Cn2ncc3c([nH]c4ccc(C)cc43)c2=O)c1 | 1.5 | 1.2%
CCOC(=O)c1[nH]c(C)c(C(=O)NCc2ccc(F)cc2)c1C | -0.8 | 0.6%
Cc1ccc(-c2noc(CCC(=O)Nc3ccc(F)cc3Cl)n2)cc1 | -0.7 | 0.5%
O=c1cc(-c2ccccc2)n2c(SCc3ccc(Br)cc3)nnc2[nH]1 | 1.8 | 17%
COc1ccccc1CNC(=O)Nc1ccc2c(c1)N(C)C(=O)c1ccccc1S2 | 1.6 | -0.3%
CCc1ccc(NC(=O)Cn2c(=O)n(CCCC(=O)NCCc3ccc(OC)c(OC)c3)c(=O)c3ccccc32)cc1 | -0.5 | 1.0%
CCOC(=O)c1c(NC(=O)COc2c(C)cc(Cl)cc2Cl)sc2c1CCCC2 | 0.8 | 0.5%
CC(C)(C)C(=O)Cn1c(=O)n(-c2ccc(Cl)cc2)c(=O)c2c3c(sc21)CCCC3 | -0.4 | 0.9%
Cc1nc2ccn(Cc3cccs3)c(=O)c2cc1C(=O)NCc1ccc(Cl)cc1 | 1.5 | 2.4%
COc1cccc(Cn2c(CNS(=O)(=O)c3ccc(F)c(Cl)c3)nc3cccnc32)c1 | 0.7 | 0.5%
COC(=O)c1cc(-c2ccc(Cl)cc2)c2c(=O)[nH]c(=O)n(C)c2n1 | 1.7 | -0.8%
CSc1nnc(NC(=O)Cc2coc3cc(C)ccc23)s1 | -0.9 | -0.7%
Cc1ccc(-n2ncc3c(N4CCC(C(N)=O)CC4)ncnc32)cc1 | -0.1 | 2.6%
COc1ccc(CNCCSc2nnnn2-c2ccccc2)c(OC)c1 | 0.2 | 2.6%
CCCSc1ncc(Cl)c(C(=O)Nc2sc3c(c2C(=O)NCCCOC)CCCC3)n1 | -0.3 | 2.2%
COC(=O)C(NC(=O)CC(C)C)(Nc1nc2c(s1)CCCC2)C(F)(F)F (stereo not drawn) | 1.2 | 0.0%
CCCN1C(=O)C2(c3ccccc31)c1c(oc3ccc(C)cc3c1=O)C(=O)N2CCOC (stereo not drawn) | -0.8 | 1.0%
CCOC(=O)c1ccc(CN(Cc2ccccc2C)S(=O)(=O)c2ccc(C(C)(C)C)cc2)cc1 | 1.7 | 0.0%
CCOC(=O)c1ccc(N2CCN(c3cc(C)ccc3C)CC2)c(NC(=O)Nc2ccc(CC)cc2)c1 | -0.1 | 1.7%
CN(N=O)c1ccc(/C=C/c2ccnc3ccccc23)cc1 | 3.1 | -0.6%
Cc1ccc(-c2nc3ccccc3[nH]2)cc1NC(=O)COc1ccccc1[N+](=O)[O-] | -0.4 | -1.2%
Cc1ccc(OC(C)C(=O)Nc2nonc2-c2ccc(Br)cc2)cc1C (stereo not drawn) | 0.9 | 22µM*
CCN1C(=O)CC(C(=O)Nc2ccc(OC)cc2)SC1=Nc1ccc(C)c(C)c1 (stereo not drawn) | 1.4 | 3.8%
CC(Oc1ccccc1)C(=O)N1CCN(Cc2cc(=O)n3nc(-c4ccccc4Cl)sc3n2)CC1 (stereo not drawn) | -0.3 | -1.4%
CCCn1c(=O)n(-c2cc(Cl)c(OC)cc2OC)c(=O)c2c3c(sc21)CN(C(C)=O)CC3 | 0.1 | 2.1%
CC(NC(=O)c1sc2ncccc2c1-n1cccc1)c1ccccc1 (stereo not drawn) | 2.3 | 0.7%
CCc1ccc(NC(=O)CCc2nnc3n(C)c(=O)c4sccc4n23)cc1 | 0.0 | 1.6%
Cc1cc(NC(=O)CSc2nc3c([nH]c4ccccc43)c(=O)n2-c2cccc(Cl)c2)no1 | 2.9 | -0.6%
CSc1ccc(CCNC(=O)c2cc3n(n2)CCCN(Cc2ccc(C)cc2)C3=O)cc1 | 2.6 | 0.8%
CC(C)c1ccc(OCC(=O)Nc2ccc(S(=O)(=O)Nc3ncccn3)cc2)cc1 | 0.6 | -0.8%
Cc1ccc(-c2nn3c(=O)cc(CN4CCN(C(=O)Nc5cccc(C(F)(F)F)c5)CC4)nc3s2)cc1 | -1.0 | 0.0%
Cc1ccc(CCNC(=O)CN(c2ccc(C)cc2)S(=O)(=O)N(C)C)cc1 | 0.1 | 0.8%
COc1cccc(-c2cc(C(=O)Nc3ccc(C)cc3)[nH]n2)c1 | -0.4 | 5.2%
Nc1nonc1-c1nc2ccccc2n1Cc1c(Cl)cccc1Cl | 1.3 | ?
CC(C)C12CN3CC(C(C)C)(CN(C1)C3c1ccc(OCc3ccccc3)cc1)C2=O (stereo not drawn) | -0.3 | 0.3%
Cc1cccc(CCNC(=O)C2CCN(c3nc4ccccc4nc3C(F)(F)F)CC2)c1 | -0.7 | 1.6%
Cc1cccc(NC(=O)CSc2c(C)cnc3c2c(=O)n(C)c(=O)n3C)c1C | -0.2 | 0.6%
Cc1ccccc1OCC(=O)Nc1ccc(OCc2cc(=O)n3ccccc3n2)cc1 | 0.8 | -11%
CCc1ccccc1NC(=O)C(=O)NCCc1sc(-c2cccc(F)c2)nc1C | 3.3 | 1.1%
Cc1nn2c(=O)cc(COC(=O)COc3ccc(F)cc3)nc2s1 | -0.7 | 0.8%
CCOc1nc(C#N)nc(N2CCOCC2)n1 | -0.6 | 0.2%
COc1ccc(NC(=O)c2nc(S(C)(=O)=O)ncc2N(Cc2ccc(C)cc2)Cc2ccco2)cc1Cl | -0.7 | 2.1%
Cc1oc(-c2cccc(Cl)c2)nc1CN1CCCC(C(=O)NCCc2ccc(Cl)cc2)C1 (stereo not drawn) | -0.7 | 2.4%
COc1ccc(OC)c(NC(=O)c2ccc3nc(C(C)C)oc3c2)c1 | 0.8 | 4.1%
Cc1nc2c(c(C)c1CCC(=O)NCc1ccc(Cl)cc1)c(=O)n(C)c(=O)n2C | -0.7 | 2.5%
The list continues.
SMILES | TRPML1 agonist | PINK1 modulator
O=C(Cn1c(-c2cccs2)cc2cc(Cl)ccc21)N1CCN(c2ccccc2F)CC1 | 0.3 | -1.8%
CCCCN(CC)C(=O)C1CCCN(c2ncnc3onc(C)c23)C1 (stereo not drawn) | 0.2 | 1.9%
CCc1nnc(NC(=O)CSc2nccn2-c2ccc(OC)cc2)s1 | 0.8 | 8.0%
COc1ccc(NC(=O)C(Cc2ccccc2)NS(=O)(=O)c2ccc3c(c2)oc(=O)n3C)c(OC)c1 (stereo not drawn) | -0.7 | 6.9%
CCOc1ccc(CCNC(=O)c2nc(-c3cccc(F)c3)n3c2CCCCC3)cc1OCC | 3.8 | 2.0%
COc1ccccc1CNC(=O)c1cc2cc3ccc(Cl)cc3nc2o1 | -0.6 | 1.5%
CCCSc1ncc(Cl)c(C(=O)N(Cc2ccc(N(C)C)cc2)C2CCS(=O)(=O)C2)n1 (stereo not drawn) | 3.0 | 0.1%
CN(N=O)c1ccc(C=C2c3ccccc3-c3ccccc32)cc1 | -0.1 | 4.5%
Cc1ccc(-n2c(=O)c3c(c4cc(C)ccc4n3C)n(CC(=O)N3CCCC3)c2=O)cc1 | 1.0 | 5.1%
COc1ccc(Nc2sc(C(=O)c3ccccc3)c(N)c2C(=O)Nc2cc(C)ccc2C)c(OC)c1 | ? | 4.2%
CCN(CC)CCCNc1oc(/C=C/c2ccc(OC)c(OC)c2)nc1C#N | 0.7 | -1.1%
Cc1ccc(CCNC(=O)CCN2N=C(c3ccc(C)cc3)CCC2=O)cc1 | 3.0 | -0.8%
CCN(C(=O)CN1C(=O)COc2ccc(S(=O)(=O)N3CCOCC3)cc21)c1cccc(C)c1 | 2.2 | -0.8%
O=C(CN1C(=O)COc2ccc(S(=O)(=O)N3CCOCC3)cc21)N1CCN(c2ccc(Cl)cc2)CC1 | 3.5 | 2.4%
O=C(CCCn1c(=O)c2ccccc2n(Cc2cccc(F)c2)c1=O)NCc1ccccc1Cl | -0.8 | 0.1%
COc1ccc(/C=C/C(=O)Nc2cc(-c3nc4ccccc4o3)ccc2OC)cc1 | 1.1 | 12%

Compound activity as filed in PubChem BioAssay.
